Assay outcomes as filed in PubChem.
TRPML1 blocker = inhibitors of human TRPML1 channel; TRPML1-inducible cells, Ca2+ dye fluorescence, FDSS; hits give low values; inhibition of EC80 agonist-evoked calcium signal; Q9GZU1; 390,000 compounds, 0.02% hits; activity change, negative = inhibition, % (concentration not given with the values); in the data active means activity change below about -50%; inconclusive means about -30% to -50%; inactive means above about -30%;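 note: stimulus is agonist 54-4 at its EC80 concentration; % is set by controls: 0 for no effect and ±100 for the full control effect; the text of the record puts the active cut at -80%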
Target sequence (Q9GZU1 whole entry, looked up): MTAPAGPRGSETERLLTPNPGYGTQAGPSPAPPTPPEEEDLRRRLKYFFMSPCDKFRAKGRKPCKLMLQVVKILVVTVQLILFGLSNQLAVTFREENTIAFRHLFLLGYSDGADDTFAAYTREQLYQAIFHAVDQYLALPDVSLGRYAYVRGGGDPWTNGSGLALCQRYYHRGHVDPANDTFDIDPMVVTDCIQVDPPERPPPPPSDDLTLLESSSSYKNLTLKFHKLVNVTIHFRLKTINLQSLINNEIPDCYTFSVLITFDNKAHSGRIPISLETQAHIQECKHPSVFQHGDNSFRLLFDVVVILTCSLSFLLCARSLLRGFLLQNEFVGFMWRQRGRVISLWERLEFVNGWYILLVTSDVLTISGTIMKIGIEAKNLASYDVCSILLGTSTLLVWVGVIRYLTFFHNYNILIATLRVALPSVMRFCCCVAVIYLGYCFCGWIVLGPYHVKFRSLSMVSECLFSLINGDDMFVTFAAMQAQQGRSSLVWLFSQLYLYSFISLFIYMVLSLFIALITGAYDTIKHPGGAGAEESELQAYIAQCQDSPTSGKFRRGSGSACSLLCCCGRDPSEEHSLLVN
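Calcium fluorescence in TRPML1-DL cells induced overnight with Tet: a 110 s read after compound pin addition, then a 110 s antagonist read after challenge with 54-4 at 4 uM final (EC80).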
Six1-Eya2 inh = blocks human Six1 binding to Eya2; 360,000 compounds, 0.56% hits; AlphaScreen GST-Six1/His-Eya2 binding, biochemical; hits give low values; control for the full effect not named in the record; AID 651725; Q15475+O00167; activity change, % (concentration not given with the values); in the data active = activity change below about -65%; inconclusive = about -30% to -65%; inactive = above about -30%; note: % is set by controls: 0 for no effect and ±100 for the full control effect
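Compounds are tested against tagged Six1 and Eya2 proteins bridged by glutathione donor and nickel acceptor beads; after a one-hour incubation at 37 °C without light, AlphaScreen emission is recorded.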
PINK1 expr mod = modulators of PINK1 expression. Potency, µM (titrated, usually from 76.6 µM), without a hit: at the highest dose activation (PINK1 increase), most hits filed as activators. 410,000 compounds, 0.2% hits. AID 624263. PINK1 immunofluorescence, high-content cytometry, 24 h; active = well fitted activation curve with a large enough effect; inconclusive = small, poorly fitted or top-dose-only effect; inactive = flat fitted curve, though single readings scatter; cell line not stated here;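 note: potency is the fitted concentration of half-maximal effect; % of control where 0% means no effect; nearly all actives have a fitted effect of over 65% in size; a mitochondrial uncoupler was the plate control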
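Readout is PINK1 immunofluorescence, quantified alongside mitochondrial, cell and nuclear markers by laser-scanning microplate cytometry. Cells from a stable line were exposed to compound titrations (5 concentrations) for 24 hours, with CCCP controls.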
TRPML1 ag = agonists of human TRPML1 channel. Q9GZU1. TRPML1-expressing cells, Ca2+ dye fluorescence, FDSS; host cell line not named in the record; reference of the full effect not given here. activation, % (no concentration beside the values). 410,000 compounds, 0.12% hits. AID 624414; in the data active = activation above about 50%; inconclusive = about 30% to 50%; inactive = below about 30%; note: 0% is about no effect; the text of the record puts the active cut at 80%
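TRPML1-DL cells, Tet-induced overnight (~16 h, 37 degrees C), loaded 45-90 min at room temperature with Ca8 no-wash calcium dye plus quencher. FDSS fluorescence: 10 s baseline, compound pin-transfer, 110 s agonist read, then EC80 54-4 (4uM final) and 110 s antagonist read.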
D2 ag = agonists of human D2 dopamine receptor (beta-arrestin); P14416; DiscoveRx PathHunter D2 beta-arrestin, luminescence, 90 min; 100% = 57 uM dopamine signal; activation, % (no concentration beside the values); 360,000 compounds, 0.084% hits; in the data active = activation above about 40%; inconclusive = about 15% to 40%; inactive = below about 15%; note: compound concentration not given in the record; the text of the record calls up to 30% inactive
Target sequence (P14416 whole entry, looked up): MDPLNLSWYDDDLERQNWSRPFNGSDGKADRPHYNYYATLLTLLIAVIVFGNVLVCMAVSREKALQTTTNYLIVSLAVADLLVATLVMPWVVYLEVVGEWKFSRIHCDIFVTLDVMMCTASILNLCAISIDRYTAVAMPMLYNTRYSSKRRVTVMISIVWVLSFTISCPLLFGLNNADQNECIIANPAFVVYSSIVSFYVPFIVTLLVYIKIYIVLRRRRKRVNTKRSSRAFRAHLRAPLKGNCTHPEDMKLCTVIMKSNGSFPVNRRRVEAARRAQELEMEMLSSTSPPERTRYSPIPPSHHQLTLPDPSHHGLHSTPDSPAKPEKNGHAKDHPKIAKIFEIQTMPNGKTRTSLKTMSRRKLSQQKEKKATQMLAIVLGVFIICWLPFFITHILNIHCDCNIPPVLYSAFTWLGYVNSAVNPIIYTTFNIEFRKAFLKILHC
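DiscoveRx PathHunter D2 beta-arrestin cells (2,100/well) attached overnight, then compound-stimulated 90 min at 37 C in HBSS/10 mM HEPES/0.1% Tween-20 buffer; beta-galactosidase complementation read by luminescence after 1 h at ambient temperature. Dopamine 57 uM final (EC100) as control.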
CtBP-E1A inh = blocks the CtBP interaction with E1A; 340,000 compounds, 0.49% hits; activity change, % (no concentration beside the values); AlphaScreen GST-E1A/His-CtBP binding, 1536-well; hits give low values; control for the full effect not named in the record; AID 651724; in the data active means activity change below about -65%; inconclusive means about -30% to -65%; inactive means above about -30%; note: % is set by controls: 0 for no effect and ±100 for the full control effect
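AlphaScreen with 125 nM GST-E1A and 125 nM His-CtBP (5X stocks) in Tris pH 8.0, 300 mM NaCl, BSA, Tween 20, TCEP. Compounds preincubated 2 h at 37 deg C, then glutathione donor/nickel acceptor beads added for 1 h at 37 deg C in dark.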
* marks the source's active call; other numbers are inactive results; ? = inconclusive; nt = not tested or not shown; [ ] = another dose, or the depositor's remark.

SMILES | TRPML1 blocker | Six1-Eya2 inh | PINK1 expr mod | TRPML1 ag | D2 ag | CtBP-E1A inh
COc1ccc(CCNC(=O)CCCn2c(SCC#N)nc3ccccc3c2=O)cc1OC | -5 | 0 | 6.3%[38.3 µM] | -0.7 | -1.5 | 0
CC1=C(C(=O)OCc2ccccc2)C(c2ccc([N+](=O)[O-])cc2)NC(=O)N1 (stereo not drawn) | -1 | -7 | 3.1% | 1.0 | 0.2 | -2
CC(C)[C@H](NC(=O)c1ccccc1)C(=O)OCC(=O)NCCC1=CCCCC1 | 23 | 0 | 0.4% | 1.1 | -1.6 | -4
CCOC(=O)c1c(NC(=S)NC(=O)c2ccc(Cn3cc(Cl)cn3)o2)sc2c1CCC(C)C2 (stereo not drawn) | 2 | 9 | 0.6% | 0.3 | -1.6 | nt
CCc1ccc(NC(=O)c2cnc(N3CCN(c4ccccn4)CC3)c3ccccc23)cc1 | 47 | -12 | -0.3% | 0.2 | -0.5 | -3
Cc1ccc(Cc2cnc(NC(=O)/C(C#N)=C/c3ccc(-c4ccccc4[N+](=O)[O-])o3)s2)cc1 | -5 | -21 | 8.6% | 0.2 | -2.8 | 5
O=C(NCCc1ccccc1)c1cnc(Cl)c(Cl)c1 | -9 | -12 | 1.3% | -0.7 | 5.3 | -8
COC(=O)c1ccc(NC(=O)c2cnn(-c3ccc(Cl)cc3)c2C2CCN(C(=O)OC(C)(C)C)CC2)cc1 | -4 | nt | 0.6% | -0.4 | nt | nt
CCOC(=O)C1=C(C)N(C[C@@H]2CC[C@@H](Cc3ccc(-c4ccccc4)cc3)O2)C(=O)NC1c1cccc2ccccc12 (stereo partly drawn) | -4 | -15 | -0.5% | 1.1 | -1.2 | 0
CCCCSCCCNC(=O)CCCN1C(=O)c2ccccc2Sc2ncccc21 | -2 | -18 | 2.2% | -1.6 | -2.8 | -9
CN1CCN(c2ccc(CNS(=O)(=O)c3ccc(Cl)cc3)cc2)CC1 | 4 | 0 | 6.1% | 0.0 | -3.1 | -8
CC(C)(C)c1ccc(C(=O)NCCn2c(N)c(C#N)c3nc4ccccc4nc32)cc1 | -14 | -1 | 11% | 1.9 | -0.8 | -5

Pulled by compound from above:
SMILES | TRPML1 blocker | Six1-Eya2 inh | PINK1 expr mod | TRPML1 ag | D2 ag | CtBP-E1A inh
CCc1ccc(NC(=O)c2cnc(N3CCN(c4ccccn4)CC3)c3ccccc23)cc1 | 47 | -12 | -0.3% | 0.2 | -0.5 | -3
O=C(NCCc1ccccc1)c1cnc(Cl)c(Cl)c1 | -9 | -12 | 1.3% | -0.7 | 5.3 | -8
CCCCSCCCNC(=O)CCCN1C(=O)c2ccccc2Sc2ncccc21 | -2 | -18 | 2.2% | -1.6 | -2.8 | -9
CC1=C(C(=O)OCc2ccccc2)C(c2ccc([N+](=O)[O-])cc2)NC(=O)N1 (stereo not drawn) | -1 | -7 | 3.1% | 1.0 | 0.2 | -2
Cc1ccc(Cc2cnc(NC(=O)/C(C#N)=C/c3ccc(-c4ccccc4[N+](=O)[O-])o3)s2)cc1 | -5 | -21 | 8.6% | 0.2 | -2.8 | 5
CCOC(=O)c1c(NC(=S)NC(=O)c2ccc(Cn3cc(Cl)cn3)o2)sc2c1CCC(C)C2 (stereo not drawn) | 2 | 9 | 0.6% | 0.3 | -1.6 | nt

Other results follow.
SMILES | TRPML1 blocker | Six1-Eya2 inh | PINK1 expr mod | TRPML1 ag | D2 ag | CtBP-E1A inh
CC(C)(C)NC(=O)CSc1nnc(-c2ccccc2)c(-c2ccccc2)n1 | 29 | -16 | 0.9% | 1.3 | -3.3 | nt
COc1ccccc1CCNC(=O)CCNS(=O)(=O)c1ccc(NC(C)=O)cc1 | -11 | 9 | 3.8% | -0.2 | -0.6 | nt
COc1ccccc1/C=C(/NC(=O)c1ccc(Cl)cc1Cl)C(=O)O | 0 | 12 | 1.8% | 0.0 | -2.1 | 12
O=C(c1ccc2ccccc2c1)N1CCN(S(=O)(=O)/C=C/c2ccccc2)CC1 | 1 | -12 | -1.7% | -0.3 | 4.4 | -2
O=C(NC(=O)C(F)(F)F)Nc1ccc(S(=O)(=O)Nc2nccs2)cc1 | 0 | 12 | 0.2% | 0.0 | 0.0 | nt
COc1ccccc1/C=C/CN1CCCC(CCC(=O)NCc2ccccc2F)C1 (stereo not drawn) | 0 | -1 | 0.7% | -0.8 | -3.6 | 2
O=C(O)CCC(NC(=O)c1ccc(Cl)cc1)C(=O)O (stereo not drawn) | 14 | 4 | 1.4% | -0.3 | 1.0 | 7
Cc1ccc(NCc2cccn2-c2nnc(N3CCC(C(=O)NCc4ccccc4C)CC3)s2)cc1 | -1 | nt | -0.4% | 0.2 | nt | nt
Nc1cc(=O)[nH]c(SCCNS(=O)(=O)c2ccccc2)n1 | -6 | 2 | -0.4% | 0.1 | 0.3 | -5
CCNC(=S)/N=C(/Nc1ccccc1)Nc1nc(C)cc(C)n1 | 19 | -9 | -1.2% | 4.0 | -1.5 | -13
O=C(c1ccc(Cl)s1)N1CCN(c2nc3ccccc3s2)CC1 | -6 | 15 | 15% | -0.2 | -3.3 | -26
COc1ccc(CCNS(=O)(=O)c2cccc(F)c2)cc1OC | 13 | -3 | -4.0%[38.3 µM] | 3.7 | -1.7 | -8
O=C(CN1CCN(S(=O)(=O)c2ccccc2F)CC1)Nc1ccccc1C(=O)c1ccccc1 | 0 | 7 | -2.2% | 2.0 | 5.6 | nt
COc1ccccc1CCC(=O)Oc1ccccc1C#N | 3 | -1 | -0.7% | 0.1 | -3.2 | -5
C/C(=N\NC(=O)CN1CCN(S(=O)(=O)c2ccc(C)cc2)CC1)c1ccncc1 | 18 | -3 | -0.3% | 1.6 | -0.8 | -1
Cc1ccc(-c2noc(C3CCCN(C(=O)c4ccc(C(C)(C)C)cc4)C3)n2)o1 (stereo not drawn) | -15 | -12 | 0.7% | 1.0 | -2.4 | -13
O=C(Cn1cnc2sc3c(c2c1=O)CCCC3)NCC(=O)Nc1ccccc1F | 15 | 1 | -2.4% | -0.2 | -2.1 | -1
Cc1ccc(C)c(NS(=O)(=O)c2cc(C(=O)Nc3ccccc3-c3ccccc3)ccc2C)c1 | 20 | -2 | -4.3%[38.3 µM] | 2.3 | 0.3 | -6
Cc1cc(C)n2nc(SCc3ccccc3F)nc2n1 | 26 | -2 | -0.1% | -0.5 | 4.3 | 1
CCOC(=O)CC(=O)COc1nc2cc3c(nc2o1)CCCC3 | 1 | -14 | -0.1% | 1.1 | 3.7 | -6
CCCn1nc(C(=O)Nc2nnc(CC)s2)c2ccccc2c1=O | -4 | -5 | 1.9% | 0.9 | 0.6 | 7
Oc1cccc(Nc2ccccc2)c1 | 0 | 2 | -0.2% | 0.6 | -3.3 | -11
CCn1cnnc1SCC(=O)NCC1COc2ccccc2O1 (stereo not drawn) | 23 | 3 | 1.0% | 1.5 | 10 | 1
CCOc1ccc(N2CC(C(=O)NCCCc3ccccc3)CC2=O)cc1 (stereo not drawn) | 3 | 6 | -2.9% | 0.8 | -1.0 | -2
CC1CCCN(C(=O)CSc2c3c(nc4cc(Cl)ccc24)CCCC3)C1 (stereo not drawn) | 7 | nt | -0.3% | 3.0 | nt | nt
CCOC(=O)c1sc(/S(C)=N\S(=O)(=O)c2cccc(Cl)c2)c2c1CCC=C2 (stereo not drawn) | 42 | 3 | -0.6% | 1.6 | 3.2 | nt
C[C@@H]1CN([C@H](C)CO)S(=O)(=O)c2ccc(Br)cc2O[C@@H]1CN(C)Cc1ccc(C(=O)O)cc1 | 41 | 4 | 0.5% | -0.4 | -9.7 | 3
COC(=O)Cc1cc(OC)c(OC)cc1Cc1cc(OC)c(OC)cc1CC(=O)OC | -5 | 0 | 1.1%[38.3 µM] | -0.6 | -4.3 | 9
COC(=O)C1=C(COc2ccc(F)cc2)NC(=O)NC1c1ccc(C)cc1C (stereo not drawn) | -6 | -1 | 11µM* | 0.1 | -4.3 | -8
COc1ccc(C(=O)Nc2ccnn2C2CCN(Cc3ccncc3)CC2)cc1 | 2 | -1 | 0.4% | 0.1 | -2.0 | 6
COc1ccc(OC)c(NC(=O)C2CCCN2C(=O)NC2CCCCC2)c1 (stereo not drawn) | 3 | -2 | -2.6% | 1.1 | 1.6 | 8
C=C(C)CSc1ncc(-c2cccc(C(F)(F)F)c2)cn1 | 5 | 87 | 10%[38.3 µM] | 1.7 | -2.6 | 57
COc1ccc(CCNC(=O)CSc2nc(-c3ccco3)cc(C(F)(F)F)n2)cc1 | 16 | 4 | 1.8%[38.3 µM] | 2.3 | -0.6 | 1
CN1CCN(S(=O)(=O)c2cccc(C(=O)N(C)CC(=O)Nc3ccc(Cl)c(Cl)c3)c2)CC1 | 51 | -2 | -0.5% | 2.8 | -5.7 | -20
O=C(Cn1c(CO)nc2ccccc21)Nc1ccccc1Cl | 14 | 3 | 2.2% | 1.1 | -0.6 | nt
O=C1Nc2ccccc2C12NCCc1c2[nH]c2ccccc12 (stereo not drawn) | 24 | -1 | 4.4%[38.3 µM] | 0.1 | -1.9 | 7
CCOc1ccccc1NC(=O)CSc1nnc2ccc(-c3cccnc3)nn12 | 8 | 5 | 0.8% | 1.4 | 1.0 | -8
Cc1nc(NCc2ccc(S(N)(=O)=O)cc2)c2c(C)c(C)sc2n1 | -15 | 3 | 5.2% | -0.6 | 1.2 | 3
COC(=O)c1c(NC(=O)c2c(OC)cccc2OC)sc2c1CCCC2 | -6 | nt | 2.0% | 0.6 | nt | nt
COc1ccc(CNC(=O)CCS(=O)(=O)c2cc(Br)cc3c2N(C(=O)C2CC2)CC3)cc1 | 12 | nt | 5.1% | -0.2 | nt | nt
Cc1ccc(C(NC(N)=O)c2ccccc2C)cc1 (stereo not drawn) | 20 | 3 | -2.4%[38.3 µM] | -0.4 | -0.3 | 0
CCN1CCCc2cc(CN(CCN3CCOCC3)C(=S)Nc3cccc(Cl)c3)ccc21 | 24 | ? | -0.7% | 0.1 | -0.2 | ?
Cc1ccc(OCCSc2nnc(-c3cccs3)o2)cc1 | 2 | nt | 2.1% | -0.1 | nt | nt
O=C1N/C(=C/c2cccn2-c2ccccc2)C(=O)N1Cc1ccccc1F | 33 | 6 | 14% | 0.9 | -2.4 | -1
Cc1ccc(C)c(N2C(=O)CC(N3CCN(Cc4ccc5c(c4)OCO5)CC3)C2=O)c1 (stereo not drawn) | 3 | -2 | 4.1%[38.3 µM] | -0.1 | -0.5 | 11
COc1ccc(CN2CN(S(=O)(=O)c3cccs3)c3nc4ccccc4nc32)cc1 | 1 | -2 | 9.3% | -0.2 | -1.8 | 7
CCS(=O)(=O)Nc1cccc(C2=NN(S(=O)(=O)c3ccccc3)C(c3cccs3)C2)c1 (stereo not drawn) | 16 | -5 | -2.7%[38.3 µM] | 0.5 | 1.2 | -4
CC(/C=C1\SC(=S)N(C(C(=O)O)C(C)C)C1=O)=C\c1ccccc1 (stereo not drawn) | 2 | -2 | 1.2% | -0.8 | 6.1 | 3
NS(=O)(=O)c1cccc(NS(=O)(=O)c2ccc3ccccc3c2)c1 | ? | -1 | 1.0% | -0.6 | 0.8 | nt
